Source: PubChem BioAssay
Ecoli growth – blocks Escherichia coli growth | AID 1053175 | hit rate 0.21% among 330,000 | OD600 absorbance (no concentration beside the values) | OD600, 23 h; active compounds read low;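 active means OD600 absorbance below the run mean of sample wells minus 3.6 SD, in any replicate, cut at about 0.56 in these data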;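 further: stock transfer was 300 nL into about 60 µL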
HNF4A DNA FP – change in binding of human HNF4 alpha to DNA | HNF4a-FITC DNA binding, fluorescence polarization, 1 h | activity change, % at 10 µM | hit rate 0.3% among 360,000; in the data active means activity change above about 30%, passing the limit was not always enough;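 further: controls were the assay level and a saturating level of protein; the project sought stronger binding though the title names inhibitors; some compounds called inactive have numbers as strong as hits; positive values seem to mean higher polarization but the record does not say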
Target sequence (P41235 whole entry, looked up): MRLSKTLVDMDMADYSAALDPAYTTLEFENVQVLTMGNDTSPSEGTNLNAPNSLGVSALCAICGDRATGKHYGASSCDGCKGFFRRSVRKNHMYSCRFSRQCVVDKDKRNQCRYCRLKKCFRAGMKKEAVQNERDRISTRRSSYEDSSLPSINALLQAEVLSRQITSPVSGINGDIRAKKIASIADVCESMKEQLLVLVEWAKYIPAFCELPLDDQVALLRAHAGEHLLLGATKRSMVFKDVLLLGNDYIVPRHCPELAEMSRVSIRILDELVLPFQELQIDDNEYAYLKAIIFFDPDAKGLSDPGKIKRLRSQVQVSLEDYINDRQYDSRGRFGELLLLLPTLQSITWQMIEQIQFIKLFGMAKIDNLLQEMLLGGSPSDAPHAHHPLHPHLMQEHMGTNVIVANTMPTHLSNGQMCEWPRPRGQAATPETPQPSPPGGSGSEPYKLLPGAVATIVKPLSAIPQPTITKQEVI
UCH37 inh – human UCH37 deubiquitinating enzyme inhibition | Q9Y5K5 | purified proteasome/UCH37, Ub-AMC cleavage fluorescence | inhibition, % (no concentration beside the values) | hit rate 0.33% among 330,000 | AID 588478;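 active means mean of two replicates above 20%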;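 further: 0% = compound-free wells with enzyme and 100% = wells lacking proteasome; stock transfer was 100 nL into about 20 µL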
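assay system = human UCH37 enzyme supplied as purified proteasome complex | amount = proteasome at 0.15 nM in the dispensed enzyme solution | schedule = 30 min compound-proteasome preincubation then 25 min substrate reaction, room temperature | measured by = fluorescence, ex 355 nm, em 460 nm | benchmarks = no-proteasome wells (full inhibition) and compound-free wells (no inhibition)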
ALR inh – blocks human ALR sulfhydryl oxidase activity | purified ALR, DTT oxidation, H2O2 HRP-luminol luminescence | inhibition, % (no concentration beside the values) | hit rate 3.8% among 290,000;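 active means mean and each replicate at 75% or more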;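 further: stock transfer was 7.5 nL into about 7.5 µL; 0% = neutral wells and 100% = wells with inactivated enzyme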
Target sequence (P55789 whole entry, looked up): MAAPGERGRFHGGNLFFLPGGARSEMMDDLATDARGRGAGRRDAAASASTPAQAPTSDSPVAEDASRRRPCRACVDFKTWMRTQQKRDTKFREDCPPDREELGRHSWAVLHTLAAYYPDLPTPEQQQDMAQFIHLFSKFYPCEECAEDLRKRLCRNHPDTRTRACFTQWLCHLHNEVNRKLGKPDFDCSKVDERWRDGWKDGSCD
B2AR ag – agonists of human beta-2 adrenergic receptor inducing internalization. P07550. Am2.2-beta2AR cells, FAP receptor internalization, flow cytometry; reference of the scale not given here. response, % (concentration not given with the values). hit rate 0.43% among 340,000. AID 504454;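 active means response above a set limit, near 3 SD of response in nonfluorescent compounds, cut at about 42% in these data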;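 further: stock transfer was 100 nL into about 11 µL; a reference agonist was the positive control; negative values mostly stem from fluorescent compounds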
Target sequence (P07550 whole entry, looked up): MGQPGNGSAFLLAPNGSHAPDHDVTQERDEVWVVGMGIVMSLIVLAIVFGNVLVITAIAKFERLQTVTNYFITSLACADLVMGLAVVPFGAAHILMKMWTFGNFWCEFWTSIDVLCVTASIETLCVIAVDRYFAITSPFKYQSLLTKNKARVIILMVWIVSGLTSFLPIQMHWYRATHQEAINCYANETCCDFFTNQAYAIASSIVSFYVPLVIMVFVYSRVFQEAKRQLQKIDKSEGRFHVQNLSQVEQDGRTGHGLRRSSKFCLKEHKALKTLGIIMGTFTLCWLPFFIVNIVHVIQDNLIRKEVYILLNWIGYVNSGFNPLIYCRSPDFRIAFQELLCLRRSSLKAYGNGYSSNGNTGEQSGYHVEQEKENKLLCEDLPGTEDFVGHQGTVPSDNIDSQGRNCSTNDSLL
LANA-H2B inh – blocks KSHV LANA binding to histone H2A/H2B; cell-free LANA-H2A/H2B peptide, fluorescence polarization; inhibition, % (test concentration not listed); hit rate 0.6% among 320,000; AID 2629; in the data active means inhibition mostly above about 10%, no sharp cut-off; inactive means mostly below about 6.7%;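 further: stock transfer was 7.5 nL into about 10 µL; 0% = median of vehicle wells and 100% = median of positive control wells; one replicate is shown; the record names a cut of 25% in any replicate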
FGF22 binding – shifts melting point of recombinant human FGF22. recombinant FGF22 thermal shift, SYPRO orange fluorescence; percent of sucrose octasulfate shift, DMSO zero. calls only at 9.99 µM. hit rate 1.5% among 340,000;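 active means melting point raised past a set limit in the mean and every replicate; three in four hits are not shown here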
An asterisk follows results filed as active; i = inactive; . = not tested or not shown.

SMILES	Ecoli growth	HNF4A DNA FP	UCH37 inh	ALR inh	B2AR ag	LANA-H2B inh	FGF22 binding
Clc1cccc(Cl)c1C1N2CCCN12 (stereo not given)	0.72	2.6	4.4	1	5	0.6	.
COc1ccc(-n2c(-c3ccco3)nc3ccccc3c2=O)cc1	0.67	0.1	7.5	.	-6	-2.1	i
COC(=O)C1=C(c2ccc(S(C)(=O)=O)cc2)C[C@@H]2CC[C@H]1N2C(=O)N1CCCC1	.	-3.8	3.2	-11	1	0.6	i
O=c1c2ccccc2nc(/C=C/c2ccc3c(c2)OCO3)n1-c1cccc(O)c1	0.69	0.2	-95	2	-9	-4.8	.
Cc1ccc(/C=C2\C(=O)NC(=O)N(CC3CCCO3)C2=O)s1 (stereo not given)	0.71	-1.6	1.2	54	22	0.9	i
CC(=O)OC12COC1CC(O)C1(C)C(=O)C(O)C3=C(C)C(O)CC(O)(C(OC(=O)c4ccccc4)C21)C3(C)C (stereo not given)	.	1.1	.	.	2	.	i
COc1cc(OC)c(OC)cc1C=O	0.72	4.8	5.3	.	-6	.	i
O=C(COC(=O)Cc1ccccc1)Nc1nnc(-c2ccccc2)o1	0.6	0.1	0.6	3	-7	0.2	i
Cc1cc(NC(=O)COC(=O)c2c(C)nn(Cc3ccccc3Cl)c2Cl)no1	0.71	1.0	3.6	-2	8	1.2	.
O=C1NC(=O)C(=Cc2ccc(OCCOc3ccc([N+](=O)[O-])cc3)cc2)C(=O)N1	0.69	-2.0	-0.1	.	2	3.2	i
CCCCCCn1c(O)c(C=Nc2c(C)n(C)n(-c3ccccc3)c2=O)c(=O)[nH]c1=O	0.69	1.7	-0.2	0	48*	-4.0	.
CNC(C(=O)c1ccccc1)C(OC)c1cccc([N+](=O)[O-])c1 (stereo not given)	0.7	3.7	4.3	1	2	1.4	i
CN1CCN(c2c[nH]c(=O)[nH]c2=O)CC1	0.67	3.9	4.8	-8	0	-12	.
CCc1ccccc1NC(=O)CSc1nnc([C@@H](N)Cc2c[nH]c3ccccc23)o1	0.68	-3.3	4.2	3	5	6.0	.
CCC1CCCCN1CC(=O)c1ccc(OC(F)F)cc1 (stereo not given)	.	-2.9	.	5	3	-1.5	.
Cc1ccsc1C(=O)C1CCCN(Cc2cc3ccccc3o2)C1 (stereo not given)	0.66	0.7	3.4	4	0	3.9	i
CC1CN1P(=S)(c1ccccc1)N1CC1C (stereo not given)	0.68	-3.5	1.2	.	7	.	i
CCOC(=O)CC1=C(C(=O)OCC)C2(C(=O)N1)C(C(=O)OC)=C(N)Oc1ccccc12 (stereo not given)	0.61	0.0	2.0	-43	-5	4.0	.
COc1cc(/C=C/c2nc3ccccc3c(=O)n2-c2ccc(O)cc2)ccc1O	0.63	22	-48	22	-45	2.6	i
Cc1c(C(c2ccc(O)cc2)c2c(O)c3ccccc3oc2=O)c(=O)n(-c2ccccc2)n1C (stereo not given)	0.71	-1.3	0.6	9	4	5.0	i
COc1ccc(-n2c(Cc3ccccc3)nc3ccccc3c2=O)cc1	0.75	0.4	2.4	.	-7	5.3	i
COc1ccccc1OCCCn1cc(C(C)=O)c2ccccc21	0.67	0.8	1.7	-13	7	-1.6	i
CCC[N+]12CCC(CC1)C(C(O)(c1ccccc1)c1ccccc1)C2 (stereo not given)	0.66	0.2	7.1	4	-4	4.1	i
CCn1cc(C(=O)N2CCC3(CC2)OCCO3)c(=O)c2cc(S(=O)(=O)N3CCCC3)ccc21	0.69	-1.0	3.0	3	1	-3.3	.
CN1CCN(Cc2cc(C(C)(C)C)c(O)c(C(C)(C)C)c2)CC1	0.69	-1.1	1.0	14	-5	-0.6	.

Full records, looked up by structure. Order of values: Ecoli growth	HNF4A DNA FP	UCH37 inh	ALR inh	B2AR ag	LANA-H2B inh	FGF22 binding
COc1cc(OC)c(OC)cc1C=O is entered as 0.72	4.8	5.3	.	-6	.	i
O=C1NC(=O)C(=Cc2ccc(OCCOc3ccc([N+](=O)[O-])cc3)cc2)C(=O)N1 is entered as 0.69	-2.0	-0.1	.	2	3.2	i

Compounds from the list above that have a halogen:
SMILES	Ecoli growth	HNF4A DNA FP	UCH37 inh	ALR inh	B2AR ag	LANA-H2B inh	FGF22 binding
Clc1cccc(Cl)c1C1N2CCCN12 (stereo not given)	0.72	2.6	4.4	1	5	0.6	.
Cc1cc(NC(=O)COC(=O)c2c(C)nn(Cc3ccccc3Cl)c2Cl)no1	0.71	1.0	3.6	-2	8	1.2	.
CCC1CCCCN1CC(=O)c1ccc(OC(F)F)cc1 (stereo not given)	.	-2.9	.	5	3	-1.5	.

Next structures follow:
SMILES	Ecoli growth	HNF4A DNA FP	UCH37 inh	ALR inh	B2AR ag	LANA-H2B inh	FGF22 binding
O=c1[nH]c(O)c(C=Nc2cccc(F)c2)c(=O)[nH]1	0.67	0.5	-31	-6	-2	-3.0	i
COC(=O)C1=C(c2ccc(C(C)=O)cc2)C[C@@H]2CC[C@H]1N2C(=O)NCCO	.	-0.8	0.8	1	-4	-0.9	i
COc1ccc(CC2C(=O)NC(=O)N(c3ccccc3)C2=O)c(OC)c1 (stereo not given)	0.67	0.4	7.8	4	2	-1.0	i
Cn1c(O)c(/C=C2\C=c3ccccc3=NC2=O)c(=O)n(C)c1=O	0.68	3.3	3.1	7	7	-0.9	i
COc1cccc(C2C([N+](=O)[O-])=C(N)Oc3c2c(=O)oc2ccccc32)c1 (stereo not given)	0.72	0.4	3.1	.	3	2.3	.
CCOP(=O)(OCC)C(NC(=O)c1ccc(Cl)cc1)=C(Cl)Cl	0.62	-0.8	0.4	1	-5	0.6	.
COCCNC(=O)N1[C@H]2CC[C@@H]1C(C(=O)OC)=C(c1ccc(OC(F)(F)F)cc1)C2	.	-0.7	-0.2	-1	-2	-0.2	i
COc1ccc(C2=NCC(=S)Nc3ccc(Cl)cc32)cc1OC	0.72	1.1	7.0	-3	-14	4.5	i
O=Cc1cn(Cc2c(F)cccc2Cl)nc1-c1ccccc1	0.69	5.3	6.0	5	-4	0.6	i
CC(=O)C1CCC2C3CCC4CC(O)CCC4(C)C3C(O)CC12C (stereo not given)	0.69	2.4	2.3	.	0	.	i
CCOC(C(=O)OCC(O)CN(CC)CC)(c1ccccc1)c1ccccc1 (stereo not given)	0.69	-3.3	1.2	-5	-7	-1.1	.
O=Cc1c(C(=O)O)n(Cc2ccccc2F)c2ccccc12	0.68	-3.2	5.5	-1	9	1.0	i
O=S(=O)(NC1CN2CCC1CC2)c1ccc(Cl)cc1 (stereo not given)	0.69	-2.8	-0.1	-5	-1	1.1	i
CN(C)S(=O)(=O)c1cccc(C(=O)N2CCC(C(=O)O)(c3ccccc3)CC2)c1	0.63	0.8	2.2	-5	15	-0.2	i
C=CCn1c(O)c(C(C)=Nc2cccc(C(=O)O)c2)c(=O)[nH]c1=O	0.68	-3.2	3.0	-1	-12	5.1	i
COc1ccc(C(=O)N2CCOCC2)cc1S(=O)(=O)N1CCC(C)CC1	0.68	-2.2	4.1	-17	4	3.7	.
CC1=CC(O)C(O)C2(C)C1CC1OC(=O)CC3C(C)C(O)C(=O)C2C13CO (stereo not given)	0.66	0.3	0.9	.	-7	.	.
N#Cc1ccccc1OCC(=O)N1CCN(CC(=O)Nc2ccc(F)cc2)CC1	0.7	1.6	0.0	.	10	.	.
Fc1ccccc1N1CCN(Cc2c(F)cccc2F)CC1	0.71	-1.9	0.5	4	-1	4.7	.
CCSP1(=S)N=C(N2CCOCC2)C(C#N)=C2CCCN21 (stereo not given)	0.63	1.7	2.1	-4	-3	1.1	.
CC(C)CC12CN3CCN(CC(C3)/C1=N/O)C2	.	-1.5	.	-6	-5	-2.3	.
C[C@]12CCC(=O)C=C1C=CC1C2CC[C@]2(C)C(=O)CCC12 (stereo not given in full)	0.64	-1.2	0.6	2	7	-0.1	i
COc1ccc(NC(=O)c2cn(CCC#N)nc2-c2cccc(Br)c2)cc1	0.7	0.3	6.1	27	5	-2.7	i
COc1ccc(C2SCC(=O)Nc3c2c(C)nn3-c2ccccc2)cc1 (stereo not given)	0.75	1.2	3.5	.	7	-1.4	.
CN1CCN(c2nc([N+](=O)[O-])nn2C)CC1	0.71	-0.4	0.1	-18	5	-3.5	i
SMILES	Ecoli growth	HNF4A DNA FP	UCH37 inh	ALR inh	B2AR ag	LANA-H2B inh	FGF22 binding
CN(C)C1=NP(N(C)C)(N(C)C)=NC(c2ccccc2)=N1	0.72	-1.1	4.2	-3	2	4.2	.
Cc1nccn1Cc1ccc(Cl)nc1	0.73	-0.6	-0.1	.	0	3.1	i
CCOC(=O)C1(CCc2ccccc2)CCN(Cc2cccc3c2OCO3)CC1	0.71	-0.1	5.4	.	2	-4.6	i
COC(=O)C(O)(c1ccc(N(C)C(=O)c2ccc(Cl)c(Cl)c2)cc1)C(F)(F)F (stereo not given)	0.63	-2.8	2.6	-14	-7	6.2	.
CC(C)C(NC(=O)C(C(C)C)N(C)C)C(=O)N(C)C(C(=O)N1CCCC1C(=O)N1CCCC1C(=O)NCc1ccccc1)C(C)C (stereo not given)	.	0.1	.	.	16	.	i
O=C1CC(=O)N(c2ccccc2)C(=O)N1	.	-1.6	.	.	-9	.	i
CN1Cc2cccnc2N(C)Cc2cc(Cl)ccc21	0.62	5.1	2.8	99*	3	1.6	i
Cn1cc(C=C2C(=O)NC(=O)NC2=O)c2ccccc21	0.66	1.5	5.1	-8	6	3.8	i
CCCCN1C(=O)NC(=O)C2(Cc3c(nc4ccccn4c3=O)N3CCc4ccccc4C32)C1=O (stereo not given)	0.66	-1.0	-13	-24	-9	4.3	.
O=c1[nH]c(O)c(/C=C2/C=CC(c3cc(Cl)ccc3Cl)=N2)c(=O)[nH]1	0.7	7.6	7.2	3	-23	4.1	i
C/C(=N\Nc1cccc2ccccc12)c1c(O)n(Cc2ccccc2)c(=O)[nH]c1=O	0.71	24	1.9	7	2	1.4	.
COc1ccc(C(CN(C)C)C2(O)CCCCC2)cc1 (stereo not given)	0.69	-3.0	0.1	-3	-1	2.5	i
CCCCCn1c(=O)c(C(=O)NCc2ccncc2)c(O)c2ccccc21	0.73	-1.6	-0.7	-2	17	0.8	.
CCN(CC)C(=O)Cn1cc(/C=C2\C(=O)NC(=O)N(c3ccccc3F)C2=O)c2ccccc21	0.69	-3.1	-0.4	8	27	-1.5	i
CCN1C[C@]2(COC)CC[C@H](OC)[C@@]34C5C[C@H]6C(=O)C5[C@](O)(C[C@H]6OC)[C@@](O)(C(OC)C23)[C@@H]14 (stereo not given in full)	0.76	2.2	1.1	-10	6	-3.1	i
C=CCn1c(O)c(C=NCCN2CCOCC2)c(=O)[nH]c1=S	0.63	0.2	7.5	-4	9	-2.0	i
CCCCc1nc2ccccc2c(=O)n1-c1ccc(Cl)cc1[N+](=O)[O-]	0.78	0.1	3.1	-6	3	7.8	.
Cc1cc(-c2ccc(N)c(C)c2)ccc1N	0.63	-2.8	4.8	.	-3	.	i
C=CCn1c(O)c(C(CC)=Nc2ccc(NC(C)=O)cc2)c(=O)[nH]c1=O	0.68	1.2	9.0	5	17	6.0	i
CC(=O)O/C(=C1\CC2C3CC=C4CC(OC(C)=O)CCC4(C)C3CCC2(C)C1=O)C(F)(F)F (stereo not given)	0.71	-2.7	0.5	.	12	.	i
O=P(N1CC1)(N1CC1)N1CCc2ccccc21	0.69	2.4	2.3	.	3	.	i
COC(=O)C1=C(c2ccc(S(C)(=O)=O)cc2)C[C@@H]2CC[C@H]1N2C(=O)N1CCOCC1	.	-0.4	2.2	.	-3	-4.6	i
COc1ccc(N=Cc2c(O)n(C)c(=O)[nH]c2=O)cc1	0.65	1.8	-2.0	-9	-2	-0.9	i
CCN1C(=O)C(=Cc2ccc(C)s2)C(=O)N(CC)C1=S	0.7	4.3	0.7	61	21	-2.9	i
COc1cc(OC)cc(C2(C#N)CCN(C)CC2)c1	0.66	2.2	-2.6	-7	1	3.2	i
CCC(=NCCC1=CCCCC1)c1c(O)[nH]c(=O)[nH]c1=O	0.69	-1.3	1.2	-15	-3	-0.8	.
O=C(Nc1ccc(Cl)cc1C(=O)c1ccccc1)c1ccccc1	0.72	1.5	0.3	-5	10	5.1	.
COc1cc2c(cc1OC)-c1c(OC)c(OC)cc3c1[C@H](C2)[N+](C)(C)CC3	.	-1.5	2.0	-10	0	4.1	i

A portion of the library; count on the stated rates, not on these rows.
